Compound activity (PubChem)
CtBP-E1A blk: CtBP/E1A binding inhibition | AlphaScreen GST-E1A/His-CtBP binding, 1536-well; active compounds read low; control for the full effect not named in the record | activity change, % (no concentration beside the values) | 0.49% of 340,000 active | AID 651724; in the data active means activity change below about -65%; inconclusive means about -30% to -65%; inactive means above about -30%; further: on the % scale 0 is the no-effect control and ±100 the full control effect
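Homogeneous bead-based format: GST-tagged E1A captured on glutathione donor beads, His-tagged CtBP on nickel acceptor beads; compounds precede bead addition by 2 h at 37 °C.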
TRPML1 agonist: agonists of human TRPML1 channel; Q9GZU1; TRPML1-expressing cells, Ca2+ dye fluorescence, FDSS; host cell line not named in the record; reference of the full effect not given here; activation, % (test concentration not listed); 0.12% of 410,000 active; in the data active = activation above about 50%; inconclusive = about 30% to 50%; inactive = below about 30%; further: 0% is about no effect; the text of the record puts the active cut at 80%
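Tetracycline-induced TRPML1-DL cells are seeded and incubated overnight before loading with a no-wash Ca2+ dye and quencher. Agonist activity is taken from the 110 s fluorescence read following compound pin-transfer on an FDSS, before EC80 54-4 challenge.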
D2 PAM: human D2 receptor positive allosteric modulation; P14416; DiscoveRx D2 beta-arrestin cells, luminescence, 90 min; 100% = 57 uM dopamine signal; potentiation, % (test concentration not listed); 0.23% of 360,000 active; active = potentiation of 50% or more; inconclusive = 30% to 50%; inactive = 30% or less;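 further: compound concentration not given in the record; tested on top of an EC20 dose of dopamine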
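D2 cells co-treated with compound plus 50 nM dopamine (EC20) for 90 min at 37 deg C to detect potentiation. Beta-arrestin recruitment was read as enzyme-fragment luminescence after 1 h at ambient temperature. Full response was set by 57 uM dopamine.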
TRPML1 blocker: human mucolipin-1 channel inhibition | 0.02% of 390,000 active | TRPML1-inducible cells, Ca2+ dye fluorescence, FDSS; active compounds read low; inhibition of EC80 agonist-evoked calcium signal | activity change, negative = inhibition, % (no concentration beside the values) | Q9GZU1; in the data active means activity change below about -50%; inconclusive means about -30% to -50%; inactive means above about -30%;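 further: stimulus is agonist 54-4 at its EC80 concentration; on the % scale 0 is the no-effect control and ±100 the full control effect; compound concentration not given in the record; the text of the record puts the active cut at -80%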
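Tet-induced TRPML1-DL cells loaded with Ca8 no-wash calcium dye were read kinetically on FDSS. Compound addition was followed by EC80 agonist 54-4 (4 uM final); inhibition was read over 110 s.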
Six1-Eya2 inh: inhibitors of human Six1/Eya2 interaction; Q15475+O00167; AlphaScreen GST-Six1/His-Eya2 binding, biochemical; active compounds read low; control for the full effect not named in the record; activity change, % (test concentration not listed); 0.56% of 360,000 active; in the data active = activity change below about -65%; inconclusive = about -30% to -65%; inactive = above about -30%; further: on the % scale 0 is the no-effect control and ±100 the full control effect
Target sequence (O00167 whole entry, looked up): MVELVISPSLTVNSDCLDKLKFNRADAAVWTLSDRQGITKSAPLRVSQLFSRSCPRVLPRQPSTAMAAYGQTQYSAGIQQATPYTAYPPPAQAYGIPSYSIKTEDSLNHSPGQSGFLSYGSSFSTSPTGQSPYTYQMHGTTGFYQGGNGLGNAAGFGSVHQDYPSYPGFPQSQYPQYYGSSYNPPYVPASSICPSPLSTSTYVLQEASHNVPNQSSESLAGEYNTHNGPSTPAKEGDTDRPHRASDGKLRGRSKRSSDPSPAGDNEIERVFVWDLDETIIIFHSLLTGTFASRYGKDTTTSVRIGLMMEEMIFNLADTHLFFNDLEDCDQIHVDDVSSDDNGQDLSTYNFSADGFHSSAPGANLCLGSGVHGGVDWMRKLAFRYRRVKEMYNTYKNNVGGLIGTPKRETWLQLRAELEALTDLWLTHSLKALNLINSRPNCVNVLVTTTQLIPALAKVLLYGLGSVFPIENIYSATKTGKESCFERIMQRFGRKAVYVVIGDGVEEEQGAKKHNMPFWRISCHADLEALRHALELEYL
Target sequence (Q15475 whole entry, looked up): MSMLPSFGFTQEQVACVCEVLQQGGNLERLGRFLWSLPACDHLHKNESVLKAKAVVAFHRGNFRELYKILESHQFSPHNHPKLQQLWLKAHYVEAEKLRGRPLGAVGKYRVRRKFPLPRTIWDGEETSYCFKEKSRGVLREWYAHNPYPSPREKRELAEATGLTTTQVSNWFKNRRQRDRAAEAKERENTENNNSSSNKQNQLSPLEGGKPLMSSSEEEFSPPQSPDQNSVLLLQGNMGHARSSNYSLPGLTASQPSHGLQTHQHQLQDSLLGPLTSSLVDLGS
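AlphaScreen luminescence read after one hour at 37 °C in darkness. Pin-transferred compounds met GST-Six1 and His-Eya2 protein (5X stock 250 nM/500 nM) plus glutathione donor and Ni-chelate acceptor beads (5X, 50 ug/mL).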
TRPV1 PAM: human TRPV1 potentiation; TRPV1-expressing cells, Fluo-8 calcium influx, capsaicin EC20 potentiation; host cell line not named in the record; control for the full effect not named in the record; 0.02% of 320,000 active; AID 540277; potentiation, % at 8.33 µM; Q8NER1; active means potentiation above 80%; inconclusive means 30% to 80%; inactive means below 30%; further: 0% is about no effect
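Fluo-8 calcium influx in TRPV1-expressing cells, kinetic read (ex 480/em 520 nm). Compound added and read 3 min for agonist activity, followed by capsaicin at EC20 final and 2 min further read for enhancement.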
Numbers without * were called inactive; ? = inconclusive; nt = no result given; & = joins results of further samples.

SMILES	CtBP-E1A blk	TRPML1 agonist	D2 PAM	TRPML1 blocker	Six1-Eya2 inh	TRPV1 PAM
CCOC(=O)/C(C#N)=C/c1c(Oc2cc(C)cc(C)c2)nc2ccccn2c1=O	8	-0.7	-3	-1	-1	-9
O=C(Nc1ccc(F)cc1)C1C2CCC3C(CCC21)C3(Cl)Cl (stereo unspecified)	1	0.2	-6	-1	9	-16
O=C(Nc1ccccc1F)C(=O)Nc1cccc2ccccc12	6	-0.5	-2	-4	8	6
C=CCNC(=O)c1c(CSc2ccccc2)noc1C(=O)NCc1ccccc1	-9	3.9	-2	31	20	?
COc1ccc(C2/C=C\CN(S(=O)(=O)c3ccc(C)cc3)[C@H](Cc3ccccc3)C(=O)N2Cc2ccc(F)cc2)cc1 (stereo partly specified)	1	0.5	-42	48	-5	16
CCOC(=O)C(=O)N/N=C(/c1ccccc1)c1ccc(OC)cc1	-4	0.6	-7	-6	3	-2
CCc1noc(C)c1C(=O)NC1CCCc2c1cnn2-c1ccc(C(C)(C)C)cc1 (stereo unspecified)	4	-0.6	-5	-2	3	-6
Clc1cccc(-c2nc3c4ccccc4ccn3c2CC2CCCCC2)c1	3	-0.8	0	nt	7	nt
Cc1ccc(NC(=O)CNC(c2ccccc2)c2ccccc2)c(F)c1	nt	1.5	-8	-9	-2	-9
CCCCN(C(=O)c1ccc(N2CCCC2=O)cc1)c1c(N)n(CCCC)c(=O)[nH]c1=O	-3	0.3	12	-12	9	-7
O=C(CN1CCOCC1)N1CCCc2ccccc21	-2	-0.6	7	-2	6	-9
Cc1nc(N)sc1-c1nnc(SCC(=O)Nc2nccs2)n1C	-1	0.7	-10	-9	-3	4
O=C(O)CC(Cc1ccccc1)C(=O)Nc1ccc([N+](=O)[O-])cc1 (stereo unspecified)	-11	-0.4	-1	4	-2	1
O=C(Nc1ccccc1C(=O)N1CCCC1)c1ncoc1-c1cccc(Cl)c1	1	0.5	-1	-2	2	-5
O=C(O)CCC(=O)Nc1ccc(OCC2CCCO2)cc1 (stereo unspecified)	nt	nt	-7	nt	12	-7
Cc1ccc(CCC(=O)Nc2ccc(C)c(C)c2)o1	1	0.1	-22	8	-5	-24
O=C(CSc1nc(=O)n(CCCN2CCOCC2)c2c1CCCC2)Nc1ccc(F)cc1	-3	-0.4	-10	0	-2	-3
CN=C1N[C@H](c2ccccc2)N(c2ccccc2)S1	nt	1.4	nt	-9	nt	10
O=C(C1CC(=O)N(c2ccccc2)C1)N1CCCCCC1 (stereo unspecified)	5	0.5	5	-17	7	6
CCOc1ccccc1CNc1nc2ccccc2n1C	nt	-1.1	-7	6	3	84*
Nc1nnc(SCC(=O)Nc2ccc(Cl)c(C(=O)O)c2)s1	-8	0.5	0	15	1	-8
N/C(=N\OC(=O)Cc1cccc2ccccc12)c1ccccn1	-1	4.2	9	16	0	12
Cc1nnc(NC(=O)CSc2nc(C(C)C)nc3sc(C)c(C)c23)s1	4	-0.6	-10	-7	10	0
O=C1/C(=C\c2ccco2)SC(=S)N1Cc1ccccc1	-21	-0.4	23	-7	?	-7
Cc1oc(-c2ccccc2Cl)nc1CN1CCCC1c1ccc(F)cc1 (stereo unspecified)	-3	0.3	-2	-17	4	-3
Cc1ccc(-c2nn(-c3cccc(F)c3)cc2CNCc2cccnc2)o1	-11	-0.4	-18	-4	-12	-4
CCCOc1ccc(C2C(C(=O)c3ccc(C)o3)=C(O)C(=O)N2Cc2ccco2)cc1OCC (stereo unspecified)	-2	1.9	-15	-15	-8	-8
COc1ccc(NC(=O)N(C)C[C@@H]2OCc3cn(nn3)CCCC(=O)N([C@H](C)CO)C[C@H]2C)cc1	4	-0.3	0	5	2	nt
CC(C)CCNS(=O)(=O)c1cc2c3c(c1)CCN3C(=O)CC2	nt	-0.5	1	6	2	-16
O=C1CCCC2=C1C(c1ccc(O)cc1)c1c(ccc3ccccc13)N2 (stereo unspecified)	3	-0.2	-3	5	-2	-1
CCn1c2ccc(F)cc2c2nc3ccccc3nc21	12	0.8	-2	8	23	-11
C=CCn1c2ccccc2c2nnc(SCC(=O)OCN3C(=O)c4ccccc4C3=O)nc21	-4	-0.1	-1	-8	11	-4
O=C(Nc1ccc(Br)cc1)c1csc(-c2ccncc2)n1	-17	-0.7	-16	53	-15	-4
CCOc1ccc(N(C(C)C(=O)N/N=C(\C)C(C)(C)C)S(C)(=O)=O)cc1 (stereo unspecified)	0	3.7	-8	4	2	-15
O=C(NC1CCCCC1)C(c1ccc2ncccc2c1)N(Cc1ccccc1)C(=O)c1cccs1 (stereo unspecified)	15	4.4	8	39	-5	nt
CCOC(=O)CC(=O)CSc1nc(C)cc(C)c1C#N	-1	0.0	-1	4	-9	4
O=C(COc1ccc(S(=O)(=O)N2CCCC2)cc1Cl)NCc1ccc2c(c1)OCO2	0	-0.5	1	25	3	6
Cc1c(C(=O)NCc2ccccc2)sc(=O)n1Cc1ccccc1F	-6	-0.9	-1	nt	-7	nt
CN(C(=O)Nc1ccccc1)C1CCCCC1	7	0.0	-5	-4	9	22
O=c1c2cc(Br)ccc2nc2n1CCCCC2	-13	1.7	-27	8	0	12

Reformatted with two lines to a compound: three of the compounds above.
Values run as follows: CtBP-E1A blk	TRPML1 agonist	D2 PAM	TRPML1 blocker	Six1-Eya2 inh	TRPV1 PAM
- O=C1/C(=C\c2ccco2)SC(=S)N1Cc1ccccc1
    -21	-0.4	23	-7	?	-7
- Cc1oc(-c2ccccc2Cl)nc1CN1CCCC1c1ccc(F)cc1 (stereo unspecified)
    -3	0.3	-2	-17	4	-3
- Cc1ccc(-c2nn(-c3cccc(F)c3)cc2CNCc2cccnc2)o1
    -11	-0.4	-18	-4	-12	-4

(more compounds)
SMILES	CtBP-E1A blk	TRPML1 agonist	D2 PAM	TRPML1 blocker	Six1-Eya2 inh	TRPV1 PAM
C=CCn1c(C)c(C(C)=O)c(N2CCN(c3ccccc3)CC2)nc1=S	-1	-0.4	-3	-4	0	-2
CCOC(=O)C(C)(C)Oc1cccc2c1S(=O)(=O)c1ccccc1-2	1	-0.6	-4	6	3	nt
COc1ccc(/C=N/NC(=O)c2ccncc2)cc1CN1CCN(c2ccc(F)cc2)CC1	-1	-1.1	-33	0	-13	-8
COC(=O)N1CCc2c(sc(NC(=O)C3=COCCO3)c2C#N)C1	3	0.0	-2	-1	0	-4
CN(Cc1ccccc1)C(=O)c1ccccc1NC(=O)c1ccccc1	7	0.5	-9	-8	5	9
Cc1c(C(=O)N2CCN(CC(=O)Nc3ccccc3Cl)CC2)oc2ccc(Br)cc12	2	-0.2	-2	2	2	-28
Cc1cccc(-n2c(SCc3ccc([N+](=O)[O-])cc3)nnc2-c2c[nH]c3ccccc23)c1	nt	1.0	-12	13	-16	3
Cn1c(CN2CCCCC2)nc2cc(NC(=O)c3cccs3)ccc21	-24	0.4	-23	5	-16	-21
C#CCOC(=O)CCCNc1ccc([N+](=O)[O-])cc1[N+](=O)[O-]	0	-0.6	-7	-5	-10	25
COc1ccc(CCNC(=O)CSc2nc(O)c(CCC(C)C)c(=O)[nH]2)cc1OC	9	0.7	-1	9	0	6
CN1C(=O)CC(N2CCC(c3nc4ccccc4s3)CC2)C1=O (stereo unspecified)	5	0.2	-16	12	1	-8
CCN(C[C@H]1N[C@@](Cc2ccccc2)(C(=O)OC)[C@H]2C(=O)N(Cc3ccccc3)C(=O)[C@@H]12)C(=O)Nc1ccc(Cl)cc1	-5	0.8	-12	26	-7	nt
Cc1ccccc1N(CC(=O)N1CCN(Cc2ccccc2)CC1)S(C)(=O)=O	2	0.3	-18	1	-3	nt
N/C(=N\OC(=O)c1ccc2c(c1)OCO2)c1cccnc1	-2	-0.6	79*	-2	-10	?
CCCCCOc1ccc(CN2CCOCC2)cc1Cl	6	0.9	-11	73	-2	-15
C=CCc1ccc(OCCOCCNCCOC)c(OC)c1	-1	-1.0	-1	-4	-7	0
O=[N+]([O-])c1ccc(N2CCN(c3ccc(Cl)nn3)CC2)cc1NC1CC1	4	2.9	13	16	0	nt
COC(=O)NCC(c1ccc2c(c1)OCO2)N1CCN(c2ccccc2)CC1 (stereo unspecified)	-8	0.3	-19	31	-1	-6
CC(=O)Nc1cc(NC(C)=O)c(CC(C)C)s1	-1	-0.4	-1	4	4	8
COc1ccc(C(=O)COC(=O)c2ccc(Cl)nc2)c(OC)c1	9	-0.2	-30	-5	2	20

Continued; the last 5 above are carried over.
SMILES	CtBP-E1A blk	TRPML1 agonist	D2 PAM	TRPML1 blocker	Six1-Eya2 inh	TRPV1 PAM
C=CCc1ccc(OCCOCCNCCOC)c(OC)c1	-1	-1.0	-1	-4	-7	0
O=[N+]([O-])c1ccc(N2CCN(c3ccc(Cl)nn3)CC2)cc1NC1CC1	4	2.9	13	16	0	nt
COC(=O)NCC(c1ccc2c(c1)OCO2)N1CCN(c2ccccc2)CC1 (stereo unspecified)	-8	0.3	-19	31	-1	-6
CC(=O)Nc1cc(NC(C)=O)c(CC(C)C)s1	-1	-0.4	-1	4	4	8
COc1ccc(C(=O)COC(=O)c2ccc(Cl)nc2)c(OC)c1	9	-0.2	-30	-5	2	20
CC(=O)c1c(Cl)nc2cccc3c2c1-c1ccccc1C3=O	-15	-0.3	0	1	-11	13
S=c1[nH]cc(-c2ccccc2)n1-c1ccccc1Cl	-13	-1.0	4	?	-11	0
Cc1cccc(C(=O)OCc2cncs2)c1	12	-0.3	-1	-4	11	-13
COC(=O)[C@@H](Cc1ccccc1)NC(=O)Cn1cc(C)c(=O)[nH]c1=O	9	0.0	nt	2	1	nt
Cc1ccc(NC(=O)/C=C/c2ccc(S(=O)(=O)N3CCOCC3)cc2)cc1S(=O)(=O)N(C)C	14	0.1	10	6	-5	nt
CC(C(=O)c1ccccc1)[n+]1cccc(Br)c1 (stereo unspecified)	3	-0.4&-0.8	-10	11	3	2
C=CCn1cc(F)c(=O)n(CC=C)c1=O	15	-0.7	2	18	4	12
O=C(NCCC1=CCCCC1)C1CCC(CNc2c(N3CCCC3)c(=O)c2=O)CC1 (stereo unspecified)	5	0.0	0	19	-3	20
CC(=O)Nc1ccc(S(=O)(=O)Oc2ccc(C(=S)N3CCCCC3)cc2)cc1	4	0.2	12	-3	2	-33
COc1ccc(CC(=O)OCC(=O)c2ccc[nH]2)cc1	-1	0.5	-21	4	-3	2
O=C(OCC1OC(Oc2ccc(O)cc2)C(O)C(O)C1O)c1ccccc1 (stereo unspecified)	3	nt	4	nt	4	15
O=C(CNC(=S)N(CCCN1CCOCC1)Cc1cccs1)NC1CCCC1	0	-0.1	-20	-6	1	-9
COc1ccc(CNC(=O)CCCn2ccc3cc(S(=O)(=O)N4CCCC4)ccc32)cc1	-20	1.3&0.4	-3	33&6	-1	-18
Cc1cccc(C(=O)N[C@H](C(=O)OCC(=O)NC2CCS(=O)(=O)C2)C(C)C)c1 (stereo partly specified)	6	0.5	-17	16	4	13
O=[N+]([O-])c1ccc(S(=O)(=O)CC2CSc3nc4ccccc4n32)cc1 (stereo unspecified)	-16	-0.9	16	15	7	-2
O=C(COc1ccc2ccc(=O)oc2c1)NCCCn1ccnc1	4	-0.4	-9	-15	1	-7
COC(=O)c1ccccc1NC(=O)c1cc(C2CC2)on1	27	3.9	-1	-9	29	-1
CC(C(=O)Nc1ccccc1Oc1ccccc1)c1ccccc1 (stereo unspecified)	26	5.4	-24	16	8	-3
O=C(NCc1ccccc1)c1ccccc1C(=O)c1ncc[nH]1	6	1.8	-5	31	4	1
